Screening results from PubChem.
KCNQ2 pot: KCNQ2 (rat) channel potentiation; O88943; CHO-K1 KCNQ2, FluxOR thallium flux fluorescence; hits give high values; B-score at 10 µM; 310,000 tested, 0.54% active; AID 2239;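 active = fluorescence ratio B-score at least 3 SD of library B-scores, with initial fluorescence B-score within 3 SD, cut at about 5.3 in these data; same plate scores as AID 2156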;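 note: B-score of peak minus minimum over baseline fluorescence ratio after K+ and Tl+ stimulus; positive B-score means potentiation of KCNQ2 with more thallium influx and brighter signal; only the inactives scoring about 0 or higher are listed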
Target sequence (O88943 whole entry, looked up): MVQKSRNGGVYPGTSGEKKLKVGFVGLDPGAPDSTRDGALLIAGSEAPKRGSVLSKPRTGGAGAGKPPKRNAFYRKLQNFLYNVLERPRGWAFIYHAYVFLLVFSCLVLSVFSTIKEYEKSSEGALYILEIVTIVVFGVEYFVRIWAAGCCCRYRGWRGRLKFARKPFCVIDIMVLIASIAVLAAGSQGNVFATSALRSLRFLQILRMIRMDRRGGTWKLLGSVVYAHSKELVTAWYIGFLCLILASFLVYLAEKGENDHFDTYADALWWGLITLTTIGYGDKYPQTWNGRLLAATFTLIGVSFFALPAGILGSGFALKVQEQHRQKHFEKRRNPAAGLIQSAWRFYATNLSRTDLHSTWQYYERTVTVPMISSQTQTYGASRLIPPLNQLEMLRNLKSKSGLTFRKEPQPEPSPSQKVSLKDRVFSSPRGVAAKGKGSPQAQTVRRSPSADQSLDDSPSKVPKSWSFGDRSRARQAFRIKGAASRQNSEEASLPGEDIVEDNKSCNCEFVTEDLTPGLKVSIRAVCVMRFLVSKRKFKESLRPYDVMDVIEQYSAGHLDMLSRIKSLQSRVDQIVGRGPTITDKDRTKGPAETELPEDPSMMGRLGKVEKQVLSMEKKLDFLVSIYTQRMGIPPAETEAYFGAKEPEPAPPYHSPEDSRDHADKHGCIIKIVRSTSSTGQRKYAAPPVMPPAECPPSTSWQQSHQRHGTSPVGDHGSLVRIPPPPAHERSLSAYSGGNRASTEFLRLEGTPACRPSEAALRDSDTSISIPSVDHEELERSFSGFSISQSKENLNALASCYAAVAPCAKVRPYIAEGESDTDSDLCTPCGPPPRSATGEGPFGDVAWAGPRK
KCNQ2 pot baseline: recorded beside KCNQ2 pot, whose call it bears; B-score; compound at 10 µM; measured here: initial fluorescence intensity artifact check;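 brightness before thallium and not channel activity; 0 = typical well and far values either way flag optical interference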
The depositor's hits bear a star; x = not tested or not shown. Not all compounds are listed; rates above refer to the full screens.

SMILES	KCNQ2 pot	KCNQ2 pot baseline
CCN(CC(=O)Nc1ccc(NC(C)=O)cc1)C(=O)C12CC3CC(CC(Cl)(C3)C1)C2	1.2	0.05
CCCCCCc1nnc(NC(=O)c2ccco2)s1	1.8	0.26
C/C(=C\C(=O)c1ccccc1)Nc1ccc(N2CCOCC2)cc1	0.32	0.71
O=C1CCC(=O)N1CCC(c1ccc(F)cc1)c1ccco1 (stereo not given)	0.02	-0.18
C(=N\Nc1nc2ccccc2[nH]1)/c1ccc2c(c1)OCO2	0.7	-0.2
CCOc1cc(C(=O)NC2CCCCCCC2)cc(OCC)c1OCC	0.32	0.01
N/C(=N\OC(=O)Cc1ccc([N+](=O)[O-])cc1)c1cccc(Br)c1	0.35	0.35
O=C(Nc1ccccc1)c1ccccc1CCc1ccccc1	0.58	-0.03
CCOc1ccc(CCNc2nc3ccc(C)cc3n3cnnc23)cc1OCC	0.02	-0.38
CCOC(=O)c1cn(-c2c(C)n(C)n(-c3ccccc3)c2=O)c2c(F)c(F)c(F)cc2c1=O	0.4	-4

Entries of single compounds as entered above. Screens in order: KCNQ2 pot | KCNQ2 pot baseline
Shown for O=C(Nc1ccccc1)c1ccccc1CCc1ccccc1 → 0.58 | -0.03
Shown for N/C(=N\OC(=O)Cc1ccc([N+](=O)[O-])cc1)c1cccc(Br)c1 → 0.35 | 0.35
Shown for O=C1CCC(=O)N1CCC(c1ccc(F)cc1)c1ccco1 (stereo not given) → 0.02 | -0.18
Shown for CCOC(=O)c1cn(-c2c(C)n(C)n(-c3ccccc3)c2=O)c2c(F)c(F)c(F)cc2c1=O → 0.4 | -4
Shown for CCN(CC(=O)Nc1ccc(NC(C)=O)cc1)C(=O)C12CC3CC(CC(Cl)(C3)C1)C2 → 1.2 | 0.05

The list goes on.
SMILES	KCNQ2 pot	KCNQ2 pot baseline
COc1ccc(NCc2ccsc2)cc1	0.47	-0.34
C=CCn1c(SCC(=O)NCCCC(=O)OCC)nc2scc(-c3ccco3)c2c1=O	0.57	-1
CC(NS(=O)(=O)c1ccc(Cl)cc1)C(c1cccs1)N1CCN(C)CC1 (stereo not given)	2.4	-2
CS(=O)(=O)N(CC(=O)Nc1ccc(S(=O)(=O)N2CCCC2)cc1)c1cccc(F)c1	0.11	0.65
C/C1=C\CCC2C(/C=C(\C)CC1)OC(=O)C2CN1CCCCC1 (stereo not given)	0.03	0.03
O=C(CCN1C(=O)c2ccccc2C1=O)NCc1ccc(F)cc1	1.4	-2.5
COC(=O)CCN(C)CCC(=O)OC	0.39	1.4
COc1ccc(C(CC(=O)Nc2ccccn2)N2Cc3ccccc3C2=O)cc1OC (stereo not given)	0.05	0.01
O=C(Nc1ccc(-c2ccc(N3CCCCC3)nn2)cc1)c1ccco1	0.44	0.1
COc1ccc(C(=O)NC2CCCc3c2cnn3-c2ccccc2F)cc1OC (stereo not given)	0.61	2.1

Sorted by length of the SMILES (rising): five of the compounds above.
SMILES	KCNQ2 pot	KCNQ2 pot baseline
COc1ccc(NCc2ccsc2)cc1	0.47	-0.34
COC(=O)CCN(C)CCC(=O)OC	0.39	1.4
C/C1=C\CCC2C(/C=C(\C)CC1)OC(=O)C2CN1CCCCC1 (stereo not given)	0.03	0.03
COc1ccc(C(=O)NC2CCCc3c2cnn3-c2ccccc2F)cc1OC (stereo not given)	0.61	2.1
CC(NS(=O)(=O)c1ccc(Cl)cc1)C(c1cccs1)N1CCN(C)CC1 (stereo not given)	2.4	-2

(cont.)
SMILES	KCNQ2 pot	KCNQ2 pot baseline
O=C(c1ccco1)N1CCN(Cc2nc(Cc3ccccc3)no2)CC1	1.3	0.89
O=C(Nc1nnc(SCCC2OCCO2)s1)C1CC(=O)N(c2ccccc2)C1 (stereo not given)	0.77	0.16
Cc1nn2cnc3sc4c(c3c2nc1=O)CCCC4	1.3	1.8
Cc1csc(NC(=O)C2CCCN2C(=O)Oc2ccccc2)n1 (stereo not given)	0.29	-0.45
Cc1nc(-c2ccc(S(=O)(=O)Nc3ccc(Br)cc3Cl)s2)cs1	0.03	-0.01
COc1ccc2oc(C(=O)OCC(=O)Nc3cccc(S(=O)(=O)N4CCOCC4)c3)c(C)c2c1	2.7	-0.03
Cc1ccc(OC(=O)c2ccc(Cl)c([N+](=O)[O-])c2)cn1	0.09	-3
O=C(CN1CCc2cc3c(cc2C1)OCCCO3)Nc1ccc(S(=O)(=O)N2CCCC2)cc1	0.01	-0.07
Cc1nnsc1S(=O)(=O)Cc1ccccc1C(F)(F)F	0.69	0.05
COc1ccc(NC(=O)NC(C(F)(F)F)C(F)(F)F)cc1	0.83	-0.03
Cc1ccccc1C(=O)Nc1c2c(nc3ccccc13)CCCC2	0.39	-0.04
CCOc1ccc(NC(C)=O)cc1	0.51	-0.21
COc1ccccc1/C=C/C=N/NC(=O)c1ccco1	1.6	-0.07
CCOc1ccc(NC(=O)c2c(OC)cccc2OC)cc1	1.3	0.03
NC(=O)CC(NC(=O)Cc1ccc(Br)cc1)c1ccc(NCCc2ccc(Cl)cc2)c([N+](=O)[O-])c1 (stereo not given)	1.3	0.49
Cc1nnc(SCCCn2c(N3CCCCC3)nc3c2c(=O)[nH]c(=O)n3C)s1	3.5	0.04
COc1cc(C)c(C(N)=O)c(OC)n1	0.07	-0.61
COC(=O)c1ccccc1NC(=O)Nc1ccc2c(c1)OCO2	0.05	-1.7
CCN(CC)CCN(Cc1cc2cc(C)ccc2[nH]c1=O)C(=S)Nc1ccccc1	0.29	0.24
Cn1c(COc2ccc(F)cc2)nc2ccccc21	1.2	0.61
O=C1CC(C(=O)N(c2ccccc2)C(C(=O)NC2CCCC2)c2ccncc2)CS1 (stereo not given)	0.07	1.3
Cn1c(=N)n(CC(=O)c2ccccc2)c2ccccc21	0.18	0.96
Cc1nnc(SC(C)C(=O)Nc2nccs2)s1 (stereo not given)	0.74	-0.74
COc1cccc(CSc2nc3ccccc3cc2C=O)c1	0.02	0.19
CCN(CC)S(=O)(=O)c1ccc(N2CCCC2)c(NC(=O)Cc2cc(OC)c(OC)c(OC)c2)c1	0.17	-0.12
Cc1ccc(C)c(NC(=O)COC(=O)Cc2ccsc2)c1	0.08	-0.31
CCN(CC)S(=O)(=O)c1ccc(Cl)c(C(=O)Oc2cccnc2)c1	0.39	0.27
CCOC(=O)N/N=C(\C)c1ccc(Oc2ncccn2)cc1	0.12	0.05
O=C1CC(N2CCN(c3ccc(F)cc3)CC2)C(=O)N1c1ccc2c(c1)OCO2 (stereo not given)	1.6	-0.94
CCOC(=O)c1c2c(n(C)c1COC)C(=O)C(=O)c1ccc(Br)cc1-2	0.07	1.2
Nc1n[nH]c(-c2ccccc2)c1-c1ccccc1	1.5	-1.6
CCN(CC)CCNC(=O)CCc1nn(C)c(=O)c2ccccc12	0.69	0.13
COc1cccc(S(=O)(=O)Nc2ccc(C(=O)N3CCN(C(=O)c4ccco4)CC3)cc2)c1	0.03	1.2
O=C(Cc1ccccc1)Nc1ccccc1Sc1ccccc1	3.3	0.35
COc1ccc(S(=O)(=O)N2CC(C(=O)O)Oc3ccc(CC(=O)O)cc32)cc1 (stereo not given)	0.34	-1.8
CCc1ccc(-c2cc(-c3n[nH]c(=S)n3CC)c3ccccc3n2)cc1	0.49	0.13
COCCNC(=O)c1onc(CSc2ccccc2C)c1C(=O)O	0.97	-0.23
C=C1CCC[C@]2(C)C[C@H]3OC(=O)C(CNC(C)CC)[C@H]3CC12 (stereo not given in full)	1.3	-0.08
COc1ccc(C2(O)CCN(CC(=O)Nc3nccs3)CC2)c(OC)c1	0.02	1.9
COc1ccc(/C=N\NC(=O)c2ccccc2Br)cc1COc1ccccc1	0.18	-0.36
O=C1NC(=O)c2cc(Br)cc3cccc1c23	1.4	-0.18
O=C(Nc1ccc2c(c1)CCC2)c1cccc(S(=O)(=O)Nc2ccccc2Cl)c1	1.9	0.55
O=C(NCCc1ccccc1)c1ncn[nH]1	0.1	0.89
Cc1ccc(NC(=O)C2CCN(S(=O)(=O)c3cccc(C(F)(F)F)c3)CC2)nc1	0.71	-0.64
Cc1ccc(C(=O)Nc2ccc3c(c2)CCC3)cc1	0.92	0.52
CSc1n[nH]c(N)c1S(=O)(=O)c1ccc(Cl)cc1	0.31	1.1
CC(=O)Nc1ccc(/C=C(\C#N)C(N)=O)cc1	0.1	-0.38
Cn1c(NC(=O)C2CC2)cc(=O)n(C)c1=O	2.2	-0.78
O=[N+]([O-])c1cccc2ccc(/C=C/c3ccc(Cl)cc3)nc12	0.23	-2.3
Cc1cc(C)n(C(=O)c2nn(C)c(C)c2[N+](=O)[O-])n1	0.89	-0.41
Going on with the list.
SMILES	KCNQ2 pot	KCNQ2 pot baseline
O=C(Cn1ccc2ccccc2c1=O)NCCC(=O)N1CCN(C2CCCCC2)CC1	2.1	-0.79
C=CCCC(=O)N1CCCC(C(=O)c2cccc(OC)c2)C1 (stereo not given)	1.4	-0.02
COc1ccc(OCc2nnc(SCC(=O)N(C)Cc3ccccc3)n2N)cc1	1.2	-0.64
COc1ccc(C(=O)NCc2nnc(SCC(=O)N3CCCCC3)o2)cc1OC	0.22	-1.8
COC(=O)CCC(=O)OC1(C)C(=O)C=C2C=C(C3CC3)N(Cc3ccco3)C=C2C1=O (stereo not given)	0.75	1.1
COc1cc(/C=C/c2nc3ccccc3c(=O)[nH]2)cc(OC)c1OC	1.6	0.36
O=C(NC1CCN(C(=O)Nc2ccccc2Cl)CC1)c1cccc(F)c1	0.53	0
Cc1ccc(-n2ncc3c2CC(C)(C)CC3NC(=O)C2CCOCC2)cc1 (stereo not given)	0.17	0.6
COc1ccccc1-n1c(SCC(=O)O)nc2c(sc(=S)n2-c2ccc(C)c(C)c2)c1=O	0.53	2.7
COCCCNS(=O)(=O)c1ccc(C)cc1	0.45	-1
NNc1nc2c(-c3ccc(F)cc3)nnn2c2ccccc12	0.25	-0.74
Cn1c(SCc2ccccc2)nnc1-c1c[nH]c2ccccc12	0.76	1.1
O=C(COC(=O)Cc1ccc(Br)cc1)Nc1c(F)c(F)c(F)c(F)c1F	0.79	1.7
Cc1ccc(C(=O)N2CCN(c3ccc(NC(=S)NC(=O)Cc4ccccc4)cc3)CC2)cc1	1.8	-0.5
O=C1NC2(CCCCC2)C(=O)N1CCS(=O)(=O)Oc1ccccc1	1.2	0.68
O=C1CC(N2CCN(c3ccccc3)CC2)C(=O)N1c1ccc2c(c1)OCO2 (stereo not given)	1.8	0.08
Oc1ccc(Cl)cc1/C=N/c1nc2ccccc2[nH]1	4.5	-0.69
O=C(NCC1CCCO1)c1cc2n(n1)C(C(F)(F)F)CC(c1ccc(F)cc1)N2 (stereo not given)	0.62	0.12
Cc1noc(C)c1CSCC(=O)N(C)CC(=O)Nc1cccc(F)c1	0.75	1
CC(=O)N1CCN(Cc2nc3cc(NC(=O)c4cccs4)ccc3n2C)CC1	0.39	-0.86
CCc1ccc(-c2nc(CSCC(=O)NC3CC3)c(C)o2)cc1	0.02	-1.1
Cn1c(=N)c(S(=O)(=O)c2ccc(F)cc2)cc2c(=O)n3ccccc3nc21	0.05	-0.68
COc1ccc(-c2noc(CCCC(=O)NC3CCCC3)n2)cc1	0.18	4
O=C(NCc1ccco1)c1ccc(CS(=O)(=O)Cc2ccc(F)cc2)o1	1.1	1.2
O=[N+]([O-])c1ccc(NCCCO)c(S(=O)(=O)N2CCOCC2)c1	0.54	0.5
Cc1ccc2nc(NC(=O)CSCC(=O)OCC(=O)c3ccccc3)sc2c1	1.2	0.2
Cc1nn(Cc2c(Cl)cccc2Cl)c(Cl)c1/C=N/NC(=O)c1cccnc1	0.33	-0.11
CCC(Oc1ccc(C)cc1)C(=O)Nc1ccc(S(=O)(=O)Nc2nccs2)cc1 (stereo not given)	0.93	1.2
CCCCOC(=O)CSc1nc2c(c(=O)[nH]c(=O)n2C)n1C/C=C(\C)Cl	0.25	1.1
CCOc1ccc(CCNC(=O)C2CC(=O)N(Cc3ccc(OC)cc3)C2)cc1OCC (stereo not given)	0.78	0.5
COc1ccc(Cc2nnc(SCC(=O)Nc3ccc(N4CCOCC4)cc3)n2C)cc1	1.2	-2
Cc1nn(-c2ccccc2)c(C)c1NC(=O)CCl	1.8	0.89
Cc1ccccc1N1CCN(S(=O)(=O)Cc2ccccc2)CC1	0.93	1.9
CC(C)CC(NC(N)=O)C(=O)OCC(=O)Nc1ccc(OC(F)F)cc1 (stereo not given)	0.7	1.2
Cc1ccc(S(=O)(=O)/N=C/c2ccc(N(C)C)cc2)cc1	0.45	-0.57
COc1ccc(C2CC(c3ccccc3)=NN2C(=O)COC(=O)COc2ccccc2)cc1 (stereo not given)	0.12	0.52
Cc1cnc2cc([N+](=O)[O-])ccc2n1	0.78	-0.25
O=C(Cc1ccc(S(=O)(=O)N2CCCCC2)s1)Nc1ccc(F)cc1F	0.13	0.15
COC(=O)c1ccc(Nc2nc(C)cc(=O)[nH]2)cc1	0.6	0.08
CCCCn1c(N)c(N(CC(C)C)C(=O)C2CCN(C(=O)c3ccc(F)cc3)CC2)c(=O)[nH]c1=O	0.05	2
Cc1ccc(S(=O)(=O)N2CCN(CC(=O)N/N=C/C=C/c3ccccc3)CC2)cc1	0.92	-0.7
CC(C)(C)n1nnnc1C(c1cccnc1)N1CCN(c2ccccc2)CC1 (stereo not given)	1.3	1.4
CCc1ccc(NC2CC(=O)N(CCc3ccc(OC)c(OC)c3)C2=O)cc1 (stereo not given)	1.2	0.09
CCC(=O)c1coc2ccc(O)cc12	0.66	0.2
Cc1ccccc1NC(=O)CSc1nnc(-c2ccoc2C)n1CCc1ccccc1	-5.5	x
O=C(Nc1nc(-c2ccc(Cl)s2)cs1)c1ccncc1	0.32	-0.17
COc1ccc(CCNS(=O)(=O)c2ccc3c(c2)CCN3C(=O)C2CC2)cc1OC	0.68	0.19
Cc1ccc(NC(=O)COC(=O)Cn2cnc3ccccc32)cc1S(=O)(=O)N(C)C	0.16	1.1
COC(=O)c1ccc(S(N)(=O)=O)o1	0.57	-1.2
O=C(O)C1CCCCC1C(=O)Nc1ccc(Cl)cc1Cl (stereo not given)	2.6	-1.5
O=[N+]([O-])c1cc(S(=O)(=O)N2CCCC2)ccc1NCCc1ccccc1	1.3	-0.12
